ALR H2O2 inh: blocks human ALR sulfhydryl oxidase activity; P55789; purified ALR, DTT oxidation, H2O2 HRP-luminol luminescence; 290,000 tested, 3.8% active; inhibition, % (concentration not given with the values);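 active means mean and each replicate at 75% or more; inconclusive means only one of the two met; inactive means neither met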;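 further: stock transfer was 7.5 nL into about 7.5 µL; 0% = neutral wells and 100% = wells with inactivated enzyme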
Target sequence (P55789 whole entry, looked up): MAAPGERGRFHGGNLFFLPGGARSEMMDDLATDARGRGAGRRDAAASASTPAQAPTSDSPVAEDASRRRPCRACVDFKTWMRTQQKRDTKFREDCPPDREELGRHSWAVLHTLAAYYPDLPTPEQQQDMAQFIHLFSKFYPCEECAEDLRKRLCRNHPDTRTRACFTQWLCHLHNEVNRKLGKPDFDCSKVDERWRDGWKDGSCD
Calb FLC: affects C. albicans growth with fluconazole; C. albicans CaCi-2 (fluconazole-resistant clinical isolate) + fluconazole, Alamar Blue growth, 48 h; growth inhibition, % (concentration not given with the values); 300,000 tested, 0.57% active;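 active means most replicates above 75%; inconclusive means exactly half above 75%; inactive means most below 75%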;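 further: all wells also contain fluconazole at 8 µg/ml as a sub-toxic cotreatment; 0% = median of DMSO wells and 100% = median of geldanamycin control wells; wells of about 8 µL received 7.5 nL stock; the first replicate is given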
LANA-H2B inh: blocks KSHV LANA binding to histone H2A/H2B; cell-free LANA-H2A/H2B peptide, fluorescence polarization; inhibition, % (concentration not given with the values); 320,000 tested, 0.6% active; AID 2629; in the data active means inhibition mostly above about 10%, no sharp cut-off; inactive means mostly below about 6.7%;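 further: stock transfer was 7.5 nL into about 10 µL; 0% = median of vehicle wells and 100% = median of positive control wells; one replicate is shown; the record names a cut of 25% in any replicate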
Beta2AR agonist: agonists of human beta-2 adrenergic receptor inducing internalization; Am2.2-beta2AR cells, FAP receptor internalization, flow cytometry; reference of the scale not given here; response, % (concentration not given with the values); 340,000 tested, 0.43% active; AID 504454;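 active means response above a set limit, near 3 SD of response in nonfluorescent compounds, cut at about 42% in these data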;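 further: stock transfer was 100 nL into about 11 µL; a reference agonist was the positive control; negative values mostly stem from fluorescent compounds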
Target sequence (P07550 whole entry, looked up): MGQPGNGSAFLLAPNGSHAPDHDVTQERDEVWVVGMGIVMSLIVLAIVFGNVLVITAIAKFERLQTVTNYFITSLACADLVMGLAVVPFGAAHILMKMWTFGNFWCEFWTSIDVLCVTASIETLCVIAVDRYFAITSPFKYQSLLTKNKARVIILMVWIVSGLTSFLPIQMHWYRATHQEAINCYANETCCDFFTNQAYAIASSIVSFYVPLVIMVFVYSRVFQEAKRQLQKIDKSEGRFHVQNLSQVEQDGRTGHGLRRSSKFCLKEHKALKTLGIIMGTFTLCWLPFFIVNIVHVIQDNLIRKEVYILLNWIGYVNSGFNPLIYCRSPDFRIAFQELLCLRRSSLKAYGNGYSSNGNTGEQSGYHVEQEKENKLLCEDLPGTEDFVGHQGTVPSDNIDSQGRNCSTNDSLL
HNF4A DNA FP: change in binding of human HNF4 alpha to DNA | P41235 | HNF4a-FITC DNA binding, fluorescence polarization, 1 h | activity change, % at 10 µM | 360,000 tested, 0.3% active | AID 1224865; in the data active means activity change above about 30%, passing the limit was not always enough;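 further: controls were the assay level and a saturating level of protein; the project sought stronger binding though the title names inhibitors; some compounds called inactive have numbers as strong as hits; positive values seem to mean higher polarization but the record does not say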
Target sequence (P41235 whole entry, looked up): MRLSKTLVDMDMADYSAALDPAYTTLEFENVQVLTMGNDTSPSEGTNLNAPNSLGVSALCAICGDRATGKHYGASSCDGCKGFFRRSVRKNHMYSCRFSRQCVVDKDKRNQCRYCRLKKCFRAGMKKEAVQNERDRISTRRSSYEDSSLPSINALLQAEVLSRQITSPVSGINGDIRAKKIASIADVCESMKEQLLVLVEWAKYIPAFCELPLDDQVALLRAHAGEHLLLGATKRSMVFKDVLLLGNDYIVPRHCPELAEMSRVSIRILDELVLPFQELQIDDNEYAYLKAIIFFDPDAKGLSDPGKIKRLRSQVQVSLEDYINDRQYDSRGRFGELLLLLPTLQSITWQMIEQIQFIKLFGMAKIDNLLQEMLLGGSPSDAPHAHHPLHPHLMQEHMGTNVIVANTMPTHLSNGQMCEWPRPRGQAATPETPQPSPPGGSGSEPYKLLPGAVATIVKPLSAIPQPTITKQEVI
Vif A3G: inhibitors of Vif binding to APOBEC3G peptide, primary screen, biochemical, TR-FRET, GST-Vif 1-94, biotin-A3G peptide, dose response retest (AID 1117319); TR-FRET GST-Vif / biotin-A3G peptide binding; higher % means a stronger effect; test concentration not given here; strong numbers were not always called active; inhibition, %; hits with a dose series show IC50 in µM; 260,000 tested, 0.57% active;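 active means above the screen mean plus three standard deviations and confirmed in dose response; inconclusive means results disagree or hit not tested in dose response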;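 further: Vif residues 1-94 fused to GST binding biotinylated APOBEC3G peptide 110-148; 0% = full assay without inhibitor and 100% = GST in place of GST-Vif; retest series ran down from 100 µM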
RanGTP-Impb inh: inhibitors of RanGTP-importin-beta interaction, primary screen, biochemical, FRET, CFP-Ran, YFP-importin-beta, homogeneous. 300,000 tested, 1.1% active. cell-free CFP-Ran/YFP-importin-beta FRET ratio. inhibition, % (test concentration not listed);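 active means most replicates above 15%; inconclusive means exactly half above 15%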;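 further: 0% = DMSO wells and 100% = Ran loaded with GDP instead of GTP; wells of about 40 µL received 100 nL stock; the first replicate is given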
An asterisk follows results filed as active; ? = inconclusive; . = no result given; & = joins results of further samples.

SMILES | ALR H2O2 inh | Calb FLC | LANA-H2B inh | Beta2AR agonist | HNF4A DNA FP | Vif A3G | RanGTP-Impb inh
CCn1c2ccc(C)cc2c2nc3cc(C(=O)O)ccc3nc21 | 73 | -3 | -4.5 | 13 | -2.3 | . | -3.9
CN=C(Nc1cc(C)nn1CCC#N)c1ccc(F)cc1 | 1 | -3 | -2.1 | -1 | -2.7 | ? | 2.4
Cc1ccc(C(=O)CSc2nnc(COc3cc(C)cc(C)c3)o2)cc1 | -1 | -7 | 1.4 | -1 | 2.5 | -3% | 7.0
O=C(Nc1ccccn1)c1ccc(Cl)c(S(=O)(=O)N2CCc3ccccc32)c1 | 5 | . | -11 | 1 | 0.7 | 9% | .
Nc1ccc(C(=O)O)cc1[N+](=O)[O-] | -5 | 0 | -0.9 | -7 | 1.2 | . | ?
COc1cc(CCCN2CCNC[C@H]2Cc2ccc(O)cc2)cc(OC)c1OC | -2 | -1 | 0.5 | 1 | -1.8 | . | 4.7
O=C(Nc1ccccc1)N1CCC(=S)Nc2ccccc21 | -2 | 6 | 1.5 | -1 | -2.7 | 9% | -1.7
Cc1ccc(Nc2nc(N)nc(COC(=O)C3=COCCO3)n2)cc1 | 0 | . | 2.2 | 7 | -1.4 | 5% | .
Cc1nc(-c2ccc(Cl)cc2)sc1C1(C)CC(c2ccc(C#N)cc2)=NO1 (centres undefined) | . | -5 | -6.3 | -7 | -0.8 | -3% | 4.0
CCOC(=O)C(C)On1c(-c2cccc(Cl)c2)nc2ccc([N+](=O)[O-])cc21 (centres undefined) | 28 | -27 | 51* | 2 | 1.1 | 1% | 3.5
Cc1ccc(-c2noc(CN(C(=O)C(c3ccccc3)c3ccccc3)C(C)C)n2)cc1 | 1 | 50 | -2.8 | -3 | 5.0 | -2% | 3.2
CC(Cc1ccccc1)C(=O)NCc1nc2ccccc2s1 (centres undefined) | -9 | -8 | -1.5 | 1 | -1.9 | 12% | 1.2
O=C(NCc1ccccc1)C1=C[C@@H](c2ccc3c(c2)OCO3)C[C@@H](OCCCCO)O1 | -36 | -2 | -2.0 | 8 | 5.0 | . | 6.2
O=C(CCn1c2c(c3ccccc31)CCCC2)NNC(=O)c1ccccc1[N+](=O)[O-] | 11 | 4 | 16 | -2 | 1.0 | . | 0.3
O=c1c2ccccc2nc(/C=C/c2c[nH]c3ccccc23)n1-c1ccc([N+](=O)[O-])cc1 | -16 | 10 | -1.7 | 20 | -1.3 | 5% | 7.8
CC(C)(NS(=O)(=O)OCC(Cl)(Cl)Cl)c1ccccc1 | 1 | -8 | 43* | 0 | 2.0 | . | 2.8
COc1cc(NC(=S)NCCCO)c(OC)cc1Cl | -57 | -18 | -1.1 | 4 | 1.2 | -11% | 4.6
CCOC(=O)c1sc2nc(-c3cccnc3)ccc2c1N | 10 | -4 | 2.1 | -6 | 2.8 | . | -34
NC(=O)CSc1ncc(-c2ccccc2)[nH]1 | 18 | 2 | 10.0 | 11 | -1.5 | 5% | -4.1
COC(=O)c1ccccc1NC(=O)CSc1nnc(C(C)NC(=O)c2ccc(Cl)cc2Cl)n1C (centres undefined) | -10 | -6 | 2.9 | -5 | -1.2 | 21% | 4.9
O=S(=O)(Nc1ccc(N2CCOCC2)cc1)c1ccccc1 | 99* | -5 | 2.9 | -5 | -0.3 | >100µM* | -0.5
O=C(Cn1cnc2ccccc21)c1ccccc1 | 5 | 0 | 4.9 | -2 | 9.2 | . | 3.8
Cc1ccc(-c2nn[nH]n2)o1 | -7 | 9 | 2.5 | 6 | -0.5 | -7% | -2.4
C=CCNc1nc2ccccc2nc1NS(=O)(=O)c1cccc(C)c1 | 0 | 31 | -5.3 | 6 | -3.0 | -9% | 0.7
CCN1C(=O)CC(N2CCN(c3ccc(OC)cc3)CC2)C1=O (centres undefined) | 58 | -13 | 6.7 | -3 | 0.9 | 11% | ?

Carrying on.
SMILES | ALR H2O2 inh | Calb FLC | LANA-H2B inh | Beta2AR agonist | HNF4A DNA FP | Vif A3G | RanGTP-Impb inh
COC(=O)c1ccc(NC(=O)CSc2nc3cccnc3n2C)cc1 | -28 | 21 | 2.4 | 1 | 0.4 | -2% | 2.5
CCOc1ccc2[nH]c(=O)c(CN(CCCO)S(=O)(=O)c3ccc(F)cc3)cc2c1 | -5 | -3 | 1.7 | 6 | -3.1 | 7% | -0.7
CCCC(=O)N1CCC(CCC(=O)NC2CC2)CC1 | -3 | -2 | -8.6 | 2 | 1.2 | -2% | 2.4
COc1cc(NC2=CC(=O)CC(C)(C)C2)cc(OC)c1 | -3 | -10 | -9.1 | 0 | -2.3 | ? | 1.8
CCc1c(O)nc(SCC(=O)N2CCc3cc(OC)c(OC)cc3[C@@H]2C)[nH]c1=O | 99* | -2 | -0.5 | 0 | 1.6 | . | 0.3
O=C(NNC(=O)c1ccccc1Br)c1ccc(Cl)c(Cl)c1 | -2 | 10 | 0.9 | -1 | -4.5 | 10% | -4.4
Cc1cc(C)cc(NC(=O)C2CCCN(c3nc(C)cc(C)n3)C2)c1 (centres undefined) | -3 | -16 | -0.4 | -2 | -1.2 | -2% | ?
COc1ccc(C(=O)C2CCN(C(=S)Nc3ccc(F)cc3)CC2)cc1 | -3 | 24 | 1.3 | -7 | 6.8 | 7% | 0.4
COCc1c(C(=O)N/N=C\c2cccnc2)nnn1-c1nonc1N | . | -10 | -0.7 | -6 | -2.1 | . | 3.6
COc1ccccc1NC(=O)CSc1nc2sc(C)c(C)c2c(=O)n1C | . | 1 | -10 | 3 | 0.6 | . | 4.9
Fc1cc(Br)ccc1NC(=S)Nc1cccnc1 | 6 | -9 | -1.3 | -1 | 2.5 | -12% | -0.9
NC(=O)C1(C(=O)O)OC1(c1ccc(Cl)cc1)c1ccccc1Cl (centres undefined) | . | . | . | 3 | 0.5 | 5% | .
CCOC(=O)c1nc(C)n(-c2ccc([N+](=O)[O-])cc2)n1 | -8 | -5 | -2.8 | 6 | 1.7 | -4% | -1.6
O=C(CN1C(=O)NC2(CCc3ccccc32)C1=O)c1cccs1 (centres undefined) | . | . | -2.0 | 0 | 0.4 | . | .
CCOc1ccc(N2C(=O)CC(N(O)c3ccccc3)C2=O)cc1 (centres undefined) | 1 | -1 | 0.4 | 6 | -0.6 | 8% | -1.5
Cc1ncc([N+](=O)[O-])n1CC(=O)N/N=C/c1ccc(F)cc1 | -13 | 27 | 6.2 | -13 | 3.5 | -3% | -2.2
Cc1cccc(C)c1NC(=O)CSC(=S)N1CCCC1 | -12 | 5 | 5.8 | 8 | -5.1 | -6% | -1.9
COc1ccc(/C=N/Nc2nc(C)c([N+](=O)[O-])c(N(C)c3ccccc3)n2)cc1OC | -14 | 5 | -2.1 | 11 | -2.5 | -2% | 0.4
Cc1cccc(C(=O)N/N=C/c2ccc(OC3CSC3)cc2)c1 | -22 | 40 | -0.2 | 11 | -0.3 | -6% | -4.0
CCN1CCN(c2ccc(S(=O)(=O)N3CCCCC3)cc2NC(=O)Cc2c(Cl)cccc2Cl)CC1 | 0 | 14 | 8.6 | 26 | -2.3 | . | 1.3
CCOCCCNC(=O)C1CCCN1C(=O)Nc1ccccc1[N+](=O)[O-] (centres undefined) | -2 | 9 | -0.4 | -2 | 1.0 | 2% | 4.8
CC1(C)C2CCC13CS(=O)(=O)N[C@@H]3C2 (some centres undefined) | -2 | 5 | -2.3 | 0 | 2.5 | 4% | 6.7
CCSC1=C(C#N)C(c2ccc3c(c2)OCO3)C2=C(CCCC2=O)N1 (centres undefined) | 10 | -2 | 2.2 | -2 | -1.2 | ? | -0.4
NC(=O)C1CCN(c2cc(Cl)nc(N)n2)CC1 | -21 | 10 | -1.3 | 10 | 2.3 | 3% | -0.4
Cc1nn(C)cc1S(=O)(=O)N1CCCCC1C (centres undefined) | 2 | -3 | -0.1 | -2 | -2.1 | . | -0.1

In the list so far, 8 contain a nitro group on carbon.
SMILES | ALR H2O2 inh | Calb FLC | LANA-H2B inh | Beta2AR agonist | HNF4A DNA FP | Vif A3G | RanGTP-Impb inh
Nc1ccc(C(=O)O)cc1[N+](=O)[O-] | -5 | 0 | -0.9 | -7 | 1.2 | . | ?
CCOC(=O)C(C)On1c(-c2cccc(Cl)c2)nc2ccc([N+](=O)[O-])cc21 (centres undefined) | 28 | -27 | 51* | 2 | 1.1 | 1% | 3.5
O=C(CCn1c2c(c3ccccc31)CCCC2)NNC(=O)c1ccccc1[N+](=O)[O-] | 11 | 4 | 16 | -2 | 1.0 | . | 0.3
O=c1c2ccccc2nc(/C=C/c2c[nH]c3ccccc23)n1-c1ccc([N+](=O)[O-])cc1 | -16 | 10 | -1.7 | 20 | -1.3 | 5% | 7.8
CCOC(=O)c1nc(C)n(-c2ccc([N+](=O)[O-])cc2)n1 | -8 | -5 | -2.8 | 6 | 1.7 | -4% | -1.6
Cc1ncc([N+](=O)[O-])n1CC(=O)N/N=C/c1ccc(F)cc1 | -13 | 27 | 6.2 | -13 | 3.5 | -3% | -2.2
COc1ccc(/C=N/Nc2nc(C)c([N+](=O)[O-])c(N(C)c3ccccc3)n2)cc1OC | -14 | 5 | -2.1 | 11 | -2.5 | -2% | 0.4
CCOCCCNC(=O)C1CCCN1C(=O)Nc1ccccc1[N+](=O)[O-] (centres undefined) | -2 | 9 | -0.4 | -2 | 1.0 | 2% | 4.8

Further compounds follow:
SMILES | ALR H2O2 inh | Calb FLC | LANA-H2B inh | Beta2AR agonist | HNF4A DNA FP | Vif A3G | RanGTP-Impb inh
COC(=O)c1sc(N)c(C(=O)OC)c1COC(=O)CNS(=O)(=O)c1ccc(C)c(C)c1 | -1 | -3 | 0.6 | 8 | 2.5 | . | 3.4
CCOc1ccc(N/C=C/C(=O)c2ccccc2)cc1 | -2 | 13 | 0.7 | 0 | -1.2 | 5% | -1.9
Fc1cnc(N2CCOCC2)nc1NCc1ccccc1 | -50 | -22 | 1.7 | 4 | 1.4 | -6% | 1.8
CC1CC(C)(C)N(C(=O)CN2CCN(C)CC2)c2ccccc21 (centres undefined) | 2 | 1 | -2.1 | -1 | -0.8 | 3% | 4.0
COc1ccc2nc(NC(=O)C3CCCO3)sc2c1 (centres undefined) | -5 | ? | -2.2 | 3 | 1.1 | 26% | 5.5
CCOC(=O)C1=CNS(=O)(=O)NC1c1cccc(O)c1 (centres undefined) | . | . | . | -8 | 0.7 | -10% | .
Cc1ccc(NC(=O)COC(=O)Cc2cccs2)cc1S(=O)(=O)N1CCOCC1 | -3 | 2 | -2.9 | 3 | -2.6 | -1% | ?
CCc1cccc(C)c1NC(=O)C(c1ccccc1)N1CCC1=O (centres undefined) | 2 | -6 | 2.5 | 4 | 0.3 | 28% | 3.0
O=C(c1cc2ncc(Br)cn2n1)N1CCCCC1 | -4 | -2 | -2.9 | -15 | 5.5 | 22% | 1.5
COc1ccc(CNC(=O)CCS(=O)(=O)Cc2ccc(C)cc2)c(OC)c1 | -22 | 4 | 0.8 | 11 | -2.9 | . | ?
O=C(COc1ccc2c(c1)CCC2)NCc1cccc(Cl)c1 | . | 72* | -3.1 | -1 | 2.9 | . | -1.2
O=S(=O)(CCC1CCCCN1)c1ccccc1 (centres undefined) | . | -3 | 2.1 | 4 | -1.4 | . | 1.1
O=C(NC(Cc1ccc2c(c1)OCO2)C(=O)NC(Cc1ccccc1)C(=O)O)c1ccccc1 (centres undefined) | -2 | 13 | 0.6 | -6 | 0.1 | -10%&2% | 1.3
COc1cc(/C=N/NC(=O)Cc2ccccc2)cc(OC)c1OC | -4 | -5 | 0.4 | 6 | -1.5 | . | ?
CCOC(=O)CSc1nnc(-c2ccc(NS(=O)(=O)c3ccc(C)cc3)cc2)o1 | -7 | 6 | -3.2 | 38 | 0.9 | 1% | -2.0
COC(=O)COc1cccc(NC(=O)c2cccs2)c1 | -7 | 5 | -1.6 | 20 | 2.4 | 2% | 0.7
Cc1ccc(SCC(=O)OC(C)C(=O)NC2(C#N)CCCCC2)cc1 (centres undefined) | 0 | -6 | 0.4 | -2 | -0.4 | 5% | 8.9
